Compound activity: PubChem BioAssay, ICCB-Longwood Screening Facility, Harvard Medical School
HCMV NEC inh – cytomegalovirus nuclear egress complex inhibition. HTRF UL50-UL53 interaction, normalized percent inhibition. inhibition, % (no concentration beside the values). hit rate 0.15% among 190,000. AID 1918969;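 active means both replicates at 50% or more, plus weaker picks with an unusually low signal ratio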;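 further: stock transfer was 100 nL into about 20 µL; 0% = negative control wells and 100% = wells with untagged competitor protein; inactives centre near -12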
GIV-Gai inh – inhibitors of GIV GBA-motif binding to rat Galpha-i3. P08753. Galpha-i3/FITC-GIV peptide fluorescence polarization, 90 min; active compounds read low; scaled: aluminum fluoride 0%, vehicle 100%. percent of control (FP), % (test concentration not listed). hit rate 0.42% among 210,000. AID 1224905;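 active means replicate mean at 85% of control or lower, very high polarization wells dropped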;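 further: lower values mean more displacement of the GIV peptide from Galpha-i3; wells of about 15 µL received 100 nL stock; the first replicate is given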
Target sequence (P08753 whole entry, looked up): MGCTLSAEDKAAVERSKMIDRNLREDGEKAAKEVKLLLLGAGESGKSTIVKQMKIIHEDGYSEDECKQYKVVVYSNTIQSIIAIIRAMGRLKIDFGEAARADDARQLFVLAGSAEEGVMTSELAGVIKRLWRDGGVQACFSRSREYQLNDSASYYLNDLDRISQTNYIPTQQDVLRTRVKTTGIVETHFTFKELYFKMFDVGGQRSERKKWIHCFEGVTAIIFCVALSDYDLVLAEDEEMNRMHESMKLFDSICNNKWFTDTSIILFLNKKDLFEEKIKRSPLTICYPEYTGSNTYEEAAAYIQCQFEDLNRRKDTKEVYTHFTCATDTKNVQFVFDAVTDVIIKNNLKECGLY
Sa growth 42C – S. aureus growth inhibition | S. aureus RN4220 growth, OD600, 20 h, 42 °C; active compounds read low | relative growth, % (test concentration not listed) | hit rate 0.53% among 170,000;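 active means growth at 42 °C up to 50% and 20 or more points under that at 30 °C, or under 10% at both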;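 further: 300 nL library stock went into each well; scaled to the means of positive and negative controls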
Sa growth 42C second temp – second read-out of Sa growth 42C, no call of its own (marks repeat the call); relative growth, %; measured here: growth at 30 °C;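 optical density after 20 h as mean of two plates; 100% = untreated growth and lower means inhibition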
Numbers without * were called inactive; . = no result given; & = joins results of further samples.

SMILES	HCMV NEC inh	GIV-Gai inh	Sa growth 42C	Sa growth 42C second temp
CCSc1nnc(CNc2ccc(F)cc2)n1-c1ccc(C)cc1	-3	95	97	81
COc1ccc2cc3c(N)nn(C(=O)c4ccc(OC)c(OC)c4)c3nc2c1	-20&-19	106&97	85	107
CN(C)CCN1C(=O)c2oc3ccccc3c(=O)c2C1c1cccnc1 (stereo not drawn)	-16	102	85	98
C#CC(C)(CC)NC(=O)Cn1nnc(-c2ccc(OCc3c(F)cccc3Cl)cc2)n1 (stereo not drawn)	-26	110	88	98
O=C(NC1CCCCC1)O/N=C/c1ccc(F)cc1	-15	99	86	98
C#CC(CC)(CC)NC(=O)C1CC(C)=C(C)CC1C(=O)O (stereo not drawn)	-29	103	106	95
CC1CC(C)CN(c2ncnc3c2cnn3-c2ccc(Cl)cc2)C1 (stereo not drawn)	-21	.	111	94
C=CCn1c(SCc2c(C)noc2C)nc2scc(-c3cccs3)c2c1=O	-30	.	77	93
COc1ccc(NC(=O)C(C(=O)Nc2ccc(OC)cc2)C23CC4CC(CC(C4)C2)C3)cc1	30	100	96	97
O=C1OC(c2nn3c(-c4ccccc4)nnc3s2)Cc2ccccc21 (stereo not drawn)	-6	101	106	88
Cc1nc(-c2ccc(S(=O)(=O)N3CCCCCC3)s2)cs1	.	105	95	83
Cc1cc(C)c(OCC(=O)Nc2cccc(-c3nc4ncccc4o3)c2)c(Br)c1	12	109	97	98
COc1cc(NC(=O)Cn2c(C)cc3ccccc3c2=O)cc(OC)c1OC	-30	109	77	86
CCn1c(NCc2ccccn2)nc2ccccc21	.	100	90	85
O=C(Cn1ccn2nc(-c3ccc(Cl)cc3)cc2c1=O)Nc1cccc(Br)c1	-21	101	.	.
CC(C)C(=O)N1C2CCC1CC(O)(c1ccccc1F)C2 (stereo not drawn)	-14	102	116	83
COc1ccc(NC(=O)CSC2=Nc3ccccc3C3=NC(CCC(=O)NCc4ccc(F)cc4)C(=O)N23)cc1Cl (stereo not drawn)	-17	113	111	85
COC(=O)c1ccc(Cn2cc(S(=O)(=O)N3CCCC3)ccc2=O)o1	-10	.	68	90
CCC(CO)n1cnnc1-c1ccncc1 (stereo not drawn)	-16	104	97	90
COc1ccc(/C=C2\SC(=S)N(CC3CCCO3)C2=O)cc1 (stereo not drawn)	.	111	87	99
COc1ccc(CCN2C(=O)c3ccccc3NC2c2ccc(N(C)C)cc2)cc1OC (stereo not drawn)	-26	100	.	.
Cn1cc(C(=O)Nc2ccccc2Cl)c2[nH]c(=O)n(-c3ccc(Cl)cc3)c(=O)c21	-1	109	.	.
CCOC(=O)c1ccccc1NC(=O)c1ccc(-n2nc(C)cc2C)cc1	-18	.	80	90
COc1ccccc1C1C(C(=O)Nc2ccc(Br)cn2)=C(C)NC2=C1C(=O)CC(C)(C)C2 (stereo not drawn)	-5	100	.	.
O=C(Nc1ccccc1Br)N(C1=NCCS1)c1ccc(Cl)cc1	-23	.	93	85
CC(NC(=S)N1CCN(CCO)CC1)C12CC3CC(CC(C3)C1)C2 (stereo not drawn)	-6	102	112	91
CCC(C)NC(=O)c1ccc(NC(=O)c2nnc(COc3ccc(Cl)cc3)s2)cc1 (stereo not drawn)	-14	107	.	.
CCN(CC)CCOC(=O)c1ccc(NC(=O)c2nn(-c3ccc(C)cc3)c(=O)c3c2c2ccccc2n3C)cc1	-1	106	109	99
Cc1cc(C(=O)Nc2ccc(N3CCCCC3)cc2)no1	-7	100	92	84
CCOC(=O)N1CCN(C(=O)Nc2sc3nc4n(c(=O)c3c2C)CCC(C)CC4)CC1 (stereo not drawn)	-14	103	88	90
O=C(c1ccccc1)N(Cc1ccco1)c1nc(-c2ccccc2)cs1	-6	106	103	89
C1=Nc2ccccc2-c2nnc(SCc3ccccc3)nc2O1	.	106	98	93
CN(C)S(=O)(=O)c1ccc2oc(SCC(=O)O)nc2c1	-24	.	84	101
O=C(Cc1cccs1)N(c1nnc(-c2ccc(F)cc2)s1)C1CCCC1	-2	98	89	63
O=C(N/N=C/C1=C(N2CCOCC2)C(=C\c2ccccc2)/CC1)Nc1ccccc1	-20	.	81	96
COc1ccc(C)cc1Nc1c2c(nc3nc(-c4cccs4)nn13)CCCC2	.	99	91	88
CCOc1ccc2c3c(c(=O)oc2c1OCC)CCCC3	-38	101	83	46
Cc1cc2oc(C(=O)Nc3ccc(S(=O)(=O)N4CCCCCC4)cc3)cc(=O)c2cc1C	-16	100	100	88
CCCn1c(=O)n(C)c(=O)c2c3nc4ccccc4c(-c4ccccc4)c3[nH]c21	-13	.	95	96
CNC(=S)N(Cc1ccccc1)Cc1ccccc1	.	99	98	80
CN1C(=S)N(C2CCCCC2)C(=O)/C1=C/c1ccc(N2CCCC2)cc1	-21	209	89	83
CCOC(=O)c1sc(SC)nc1N	-19	.	91	84
CCN(CC)c1cc(C)c2cc(NC(=O)/C(C)=C\c3ccccc3)ccc2n1	.	95	100	86
O=C(O)CCCC(=O)Nc1ccc(-c2nc3ccccc3[nH]2)cc1	-11	.	97	83
O=C(Nc1ccccc1)Nc1nnc(SCC(=O)N2CCCCC2)s1	.	99	114	97
COc1ccc(CNS(=O)(=O)c2ccc(F)c(C(=O)Nc3c(C)cc(C)cc3C)c2)cc1	.	105	108	90
CCn1cc(Br)c(-c2nc3ccccc3c(=O)n2N)n1	.	108	91	86
O=C(Cn1c(=O)sc2cc(S(=O)(=O)NCC3CCCO3)ccc21)N1CCOCC1 (stereo not drawn)	-22	105	.	.
CC(=O)Nc1cc2ccccc2oc1=O	-21&-34	105	100	87
CCc1cccc(NC(=O)c2csc3c2CCCC3)c1	.	99	84	87
Additional compounds
SMILES	HCMV NEC inh	GIV-Gai inh	Sa growth 42C	Sa growth 42C second temp
CCOC(=O)CSc1nnc(-c2ccccc2C)n1CC	-24	105	102	93
O=C(O)CCC(=O)NCC1COc2ccccc2O1 (stereo not drawn)	-25	100	97	92
O=C(Nc1cc(Cl)ccc1N1CCOCC1)c1ccc2c(c1)S(=O)(=O)N=C1CCCCCN12	-9	.	91	77
CCc1cccc(NC(=O)Cn2c(=O)n(CC(=O)NCCc3ccccc3)c(=O)c3ccccc32)c1	-32	106	91	77
CCNC(=O)/C(C#N)=C/C1=Cc2ccccc2OC1	-78	.	87	91
COc1cc(C=C2C(=O)NC(=S)NC2=O)ccc1OCCOc1ccc(C(C)(C)C)cc1	2	98	.	.
CCOC(=O)c1cc(-c2ccccc2)nn1CCC#N	-11	.	103	99
Cc1cccc(NC(=O)Cn2ncc3c(=O)oc4ccccc4c32)n1	10	100	.	.
COc1ccc(N2CCN(CCCNC(=O)c3cc(=O)n4c(nc5ccccc54)s3)CC2)cc1	-20	96	.	.
CC1(C)CC(=O)C=C(SCC(=O)Nc2ccc(Cl)cc2)S1	3	108	89	74

Sorted by length of the SMILES (largest number first): part of the list above.
SMILES	HCMV NEC inh	GIV-Gai inh	Sa growth 42C	Sa growth 42C second temp
CCc1cccc(NC(=O)Cn2c(=O)n(CC(=O)NCCc3ccccc3)c(=O)c3ccccc32)c1	-32	106	91	77
O=C(Nc1cc(Cl)ccc1N1CCOCC1)c1ccc2c(c1)S(=O)(=O)N=C1CCCCCN12	-9	.	91	77
COc1ccc(CNS(=O)(=O)c2ccc(F)c(C(=O)Nc3c(C)cc(C)cc3C)c2)cc1	.	105	108	90
COc1ccc(N2CCN(CCCNC(=O)c3cc(=O)n4c(nc5ccccc54)s3)CC2)cc1	-20	96	.	.
COc1cc(C=C2C(=O)NC(=S)NC2=O)ccc1OCCOc1ccc(C(C)(C)C)cc1	2	98	.	.
O=C(Cn1c(=O)sc2cc(S(=O)(=O)NCC3CCCO3)ccc21)N1CCOCC1 (stereo not drawn)	-22	105	.	.
CCN(CC)c1cc(C)c2cc(NC(=O)/C(C)=C\c3ccccc3)ccc2n1	.	95	100	86
CN1C(=S)N(C2CCCCC2)C(=O)/C1=C/c1ccc(N2CCCC2)cc1	-21	209	89	83
O=C(O)CCCC(=O)Nc1ccc(-c2nc3ccccc3[nH]2)cc1	-11	.	97	83
Cc1cccc(NC(=O)Cn2ncc3c(=O)oc4ccccc4c32)n1	10	100	.	.
CC1(C)CC(=O)C=C(SCC(=O)Nc2ccc(Cl)cc2)S1	3	108	89	74
CCn1cc(Br)c(-c2nc3ccccc3c(=O)n2N)n1	.	108	91	86
CCNC(=O)/C(C#N)=C/C1=Cc2ccccc2OC1	-78	.	87	91
CCOC(=O)c1cc(-c2ccccc2)nn1CCC#N	-11	.	103	99
O=C(O)CCC(=O)NCC1COc2ccccc2O1 (stereo not drawn)	-25	100	97	92
CC(=O)Nc1cc2ccccc2oc1=O	-21&-34	105	100	87
CCOC(=O)c1sc(SC)nc1N	-19	.	91	84

Next part
SMILES	HCMV NEC inh	GIV-Gai inh	Sa growth 42C	Sa growth 42C second temp
C=C1CC[C@H](O)C/C1=C/C=C1\CCC[C@]2(C)C([C@H](C)/C=C/[C@H](C)C(C)C)CC[C@@H]12 (stereo partly drawn)	-1	.	75	81
O=C(NCCc1ccccc1)c1ccc2c(c1)N(Cc1ccccc1)C(=O)CS2=O (stereo not drawn)	5	100	.	.
COC(=O)CC1(C)NN=C(c2ccccc2)S1 (stereo not drawn)	-3	98	63	12
Cc1nn(CC(=O)NCc2ccc(F)cc2)c2ccccc12	-2	101	108	95
O=S(=O)(c1cccc(C(F)(F)F)c1)n1c(/C=C/c2ccccc2)nc2ccccc21	.	97	110	77
Cc1ccc(Nc2c(C(=O)N3CCCCC3)cnc3ccccc23)cc1	-32	94	.	.
Cc1ccc(S(=O)(=O)Oc2ccccc2/C=C2\N=C(c3ccccc3)OC2=O)cc1	-12	96	.	.
Cc1[nH]c2ccccc2c1C	-10	105	102	92
Cc1nnsc1C(=O)ON=C(c1cccs1)c1cccs1	-8	100	104	96
COc1cc(C2C(C#N)=C(N)Oc3n[nH]c(-c4cc(OC)c(OC)c(OC)c4)c32)ccc1O (stereo not drawn)	-52	99	.	.
CC(NC(=O)c1cc2ccccn2n1)c1ccccc1 (stereo not drawn)	.	101	79	86
COC(=O)c1ccccc1NC(=O)c1ccc(-n2nc(OCc3ccc(OC)cc3)ccc2=O)cc1	-38	101	.	.
CN(C)c1ccc(NC(=O)c2nc(-c3ccccc3)n(-c3cccc(Cl)c3)n2)cc1	10	99	.	.
Cc1ccc(CNC(=O)CSc2nnc(N3C(=O)c4ccccc4C3=O)s2)cc1	2	.	110	89
COc1ccccc1N1CCN(S(=O)(=O)c2c(C)sc3ncn(CC(=O)Nc4ccc(C)cc4Br)c(=O)c23)CC1	-13	103	85	87
CCOc1ccccc1C1C(C(=O)OC(C)C)=C(C)NC2=C1C(=O)CC(c1ccc(OC)c(OC)c1)C2 (stereo not drawn)	-19	101	.	.
CCN1CCN(CCNC(=O)c2ccc3c(c2)NC(=O)/C(=C\c2cccc(Cl)c2)S3)CC1	.	97	114	84
COc1ccc(C2C(C(=O)N3CCOCC3)=C(C)NC3=C2C(=O)CCC3)cc1Br (stereo not drawn)	-20	100	115	85
Cc1ccc(N/N=C(\C#N)C(=O)NC2CC2)cc1C	-27	.	82	90
CCn1nc(C)c(CCN(C)S(=O)(=O)c2cccs2)c1C	2	104	.	.
CCC1(C)Cc2c(sc3c2c(=O)n(C)c2nnc(SCC(=O)c4ccccc4)n32)CO1 (stereo not drawn)	4	107	104	94
Cc1nc(-c2ccc(Cl)cc2)sc1CCNC(=O)c1ccc(C(F)(F)F)cc1	.	110	107	100
Cn1cc(C(=O)OCc2cccc3ccccc23)cn1	-31	.	90	84
CSc1nc2nc3c(c(=O)n2[nH]1)CCCC3	10&0	104&99	114	94
